High-throughput results from PubChem BioAssay.
Anthrax LT inh – qHTS Assay for Anthrax Lethal Toxin Internalization; Cells, anthrax lethal toxin internalization, FRET ratio (460/530); Potency, µM (series often up to 40 µM), without a hit: at the highest dose activity change, negative = inhibition, most hits filed as inhibitors; hit rate 0.67% among 70,000; active = well fitted falling ratio curve with the 530 nm signal flat; inconclusive = other ratio curves, or a change in one channel alone; inactive = flat curves in the ratio and both channels; the % refers to the ratio; also: % is scaled to controls: 0 for no effect and ±100 for the full control effect; nearly all actives have a fitted effect of over 50% in size; tested in ME-180 cells; beta-lactamase reporter
Prx2 Sm inh – Schistosoma Mansoni Peroxiredoxins (Prx2); Schistosoma mansoni peroxiredoxin 2 (Prx2); S. mansoni Prx2 activity coupled to TGR/GSH (TGR is thioredoxin glutathione reductase), NADPH fluorescence loss, qHTS; some inactives read as strong as hits; Potency, µM; hit rate 0.07% among 65,000; AID 448, 2006; active means full or partial inhibition curve with a strong effect at the top dose; inconclusive means weaker partial or single-point curve; inactive means no accepted curve; also: series up to 57 µM; many of its hits are not listed in these tables
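Coupled assay in which S. mansoni TGR passes NADPH reducing equivalents via glutathione to Prx2, which reduces H2O2. Compounds were preincubated 15 min at room temperature with 25 nM TGR/50 nM Prx2 mix. Kinetic NADPH fluorescence loss (ex 365/em 450 nm) was monitored.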
An asterisk follows results filed as active; [ ] = remark or other dose. Potency is read from the fitted curve at half-maximal effect.

For Cc1cc(Cl)c(S(=O)(=O)NC(C(=O)O)c2ccccc2)cc1OCC(N)=O (configuration not stated) the results were Anthrax LT inh 5% and Prx2 Sm inh >57.
Nc1nc(-c2cccs2)cs1 was read as Anthrax LT inh -13%[8 µM] and Prx2 Sm inh >57.
For O=C(O)c1ccccc1-c1ccccc1C(=O)Nc1ccc2c(c1)Cc1ccccc1-2 the results were Anthrax LT inh inconclusive and Prx2 Sm inh >57.
`Oc1c([C@H](Nc2ccccn2)c2ccccc2)ccc2cccnc12` gave Anthrax LT inh -22%[8 µM] and Prx2 Sm inh >57.
c1ccc(-c2nc3nonc3c3nc4ccccc4n23)cc1 was read as Anthrax LT inh 0% and Prx2 Sm inh >57.
For O=C(/C=C\c1ccc(Cl)cc1)N[C@@]12CCC(=O)[C@@H]3Oc4c(O)ccc5c4[C@@]31CCN(CC1CC1)[C@@H]2C5 the results were Anthrax LT inh inconclusive and Prx2 Sm inh >57.
`CC1CCCN(C(=O)C(Cc2ccccc2)n2cccc2)C1` (configuration not stated) gave Anthrax LT inh -18% and Prx2 Sm inh >57.
`COc1ccc(Cl)cc1NC(=O)CSc1nnc(Cc2cccn2C)n1-c1ccc(F)cc1` gave Anthrax LT inh inconclusive and Prx2 Sm inh >57.
CCOC(=O)c1ccc2ncc(C(=O)OCC)c(NCCN(C)C)c2c1 was read as Anthrax LT inh 1% and Prx2 Sm inh >57.
c1ccc(CO[C@H]2NCCN2Cc2ccccc2)cc1 was read as Anthrax LT inh 1%[8 µM] and Prx2 Sm inh >57.
For Cc1oc(/N=C/c2ccc3c(c2)OCO3)c(C#N)c1C the results were Anthrax LT inh 13%.
`Cc1noc(C)c1CSc1ncnc2ccccc12` gave Anthrax LT inh -12% and Prx2 Sm inh >57.
For O=S(=O)(c1ccccc1)N1CCC2(CCN(Cc3ccncc3)CC2)CC1 the results were Anthrax LT inh -13% and Prx2 Sm inh >11.
Screening COc1ccc2c(c1)OC13CCN(C)CC1C2C(C(=O)c1ccc(F)cc1)C(=O)N3 (configuration not stated) returned Anthrax LT inh -18% and Prx2 Sm inh >57.
`Cc1cc(N2CCCC2)n2nc(C)nc2n1` gave Anthrax LT inh 6% and Prx2 Sm inh >57.
For Cc1cccc(C)c1NC(=O)Cn1c(=O)n(CCC(=O)NCc2ccco2)c(=O)c2sccc21 the results were Anthrax LT inh -6% and Prx2 Sm inh >57.
Screening CN1CCOc2cc(S(=O)(=O)Nc3ccc(F)cc3)ccc21 returned Anthrax LT inh inconclusive and Prx2 Sm inh >57.
Screening COCCCNC(=O)CCC(=O)Nc1ccc2nc(N3CCOCC3)cc(C)c2c1 returned Anthrax LT inh inconclusive and Prx2 Sm inh >57.
For COc1cccc(NC(=O)CSc2nc3ccccc3c(=O)n2CCCC(=O)N2CCCC2)c1 the results were Anthrax LT inh inconclusive and Prx2 Sm inh >57.
O=C(c1ccc(S(=O)(=O)N2CCC(c3nc4ccccc4s3)CC2)cc1)N1CCOCC1 was read as Anthrax LT inh -18% and Prx2 Sm inh >57.
For COC(=O)c1cccnc1-n1c(=O)c2cccnc2n(Cc2cccc(OC)c2)c1=O the results were Anthrax LT inh -8% and Prx2 Sm inh >57.
For COc1ccc(C(=O)Cn2nnc(-c3cccs3)n2)cc1 the results were Anthrax LT inh -16% and Prx2 Sm inh >57.
CN(C)c1ccc(-c2cncnc2NCc2cccnc2)cc1 was read as Anthrax LT inh -24% and Prx2 Sm inh >57.
For COC(=O)CCCCC(=O)OC the results were Anthrax LT inh 4%.

Some of these compounds in order of heavy-atom count, highest first:
Screening COc1ccc2c(c1)OC13CCN(C)CC1C2C(C(=O)c1ccc(F)cc1)C(=O)N3 (configuration not stated) returned Anthrax LT inh -18% and Prx2 Sm inh >57.
For O=S(=O)(c1ccccc1)N1CCC2(CCN(Cc3ccncc3)CC2)CC1 the results were Anthrax LT inh -13% and Prx2 Sm inh >11.
For COc1ccc(C(=O)Cn2nnc(-c3cccs3)n2)cc1 the results were Anthrax LT inh -16% and Prx2 Sm inh >57.
`Cc1cc(N2CCCC2)n2nc(C)nc2n1` gave Anthrax LT inh 6% and Prx2 Sm inh >57.

Four records picked at random from the list so far, as already listed:
Screening COCCCNC(=O)CCC(=O)Nc1ccc2nc(N3CCOCC3)cc(C)c2c1 returned Anthrax LT inh inconclusive and Prx2 Sm inh >57.
For COC(=O)CCCCC(=O)OC the results were Anthrax LT inh 4%.
For O=S(=O)(c1ccccc1)N1CCC2(CCN(Cc3ccncc3)CC2)CC1 the results were Anthrax LT inh -13% and Prx2 Sm inh >11.
CN(C)c1ccc(-c2cncnc2NCc2cccnc2)cc1 was read as Anthrax LT inh -24% and Prx2 Sm inh >57.

Continuation.
`N#Cc1cnc(SCC(=O)Nc2ccccc2C(F)(F)F)nc1N` gave Anthrax LT inh 7% and Prx2 Sm inh >57.
Screening CCC(=O)N(CCO)Cc1cc2ccc(C)c(C)c2[nH]c1=O returned Anthrax LT inh 3% and Prx2 Sm inh >57.
O=C(NC1CCCCC1)NC1CCN(CC(=O)N2CCOCC2)CC1 was read as Anthrax LT inh -5% and Prx2 Sm inh >57.
NC(=O)c1ccsc1NC(=O)CN1C(=O)C2CC=CCC2C1=O (configuration not stated) was read as Anthrax LT inh 3% and Prx2 Sm inh >57.
C/C(N)=C(/C#N)C(=O)COC(=O)CCSc1ccccc1 was read as Anthrax LT inh 7% and Prx2 Sm inh >57.
For Cc1ccc(-c2nnc(SCC#N)n2N)cc1 the results were Anthrax LT inh 6% and Prx2 Sm inh >57.
`CCOC(=O)c1cc(NC(=O)N2CCOCC2)c(C)nc1C` gave Anthrax LT inh -13% and Prx2 Sm inh >57.
`c1coc(CNc2nc3nonc3nc2NCc2ccco2)c1` gave Anthrax LT inh -21% and Prx2 Sm inh >57.
For CSc1nsc(SCC(=O)Nc2cccc(C(C)=O)c2)n1 the results were Anthrax LT inh -7% and Prx2 Sm inh >57.
`CC(C)CC1(C(=O)NCCc2c[nH]c3ccccc23)C=CCN1C(=O)c1ccccc1` (configuration not stated) gave Anthrax LT inh -18%.
`Cc1cccc(C)c1NC(=O)CCCSc1nnc(-c2ccco2)n1-c1ccccc1` gave Anthrax LT inh -20% and Prx2 Sm inh >57.
For CCOC(=O)Cn1nnnc1C(CC)N(Cc1cccs1)Cc1cc2cc(C)ccc2[nH]c1=O (configuration not stated) the results were Anthrax LT inh -9% and Prx2 Sm inh >57.
For CCOC(=O)c1c(NC(=O)CSc2nc3cccnc3n2C)sc(C(C)=O)c1C the results were Anthrax LT inh 1% and Prx2 Sm inh >57.
COc1ccc(-c2noc(-c3ccc(Cl)cc3)n2)cc1 was read as Anthrax LT inh 2% and Prx2 Sm inh >57.
`CCOc1cc(S(=O)(=O)NCc2ccc3c(c2)OCO3)ccc1F` gave Anthrax LT inh 2% and Prx2 Sm inh >57.
Screening CC(=O)c1ccc(OCC(O)Cn2nnc3ccccc32)cc1 (configuration not stated) returned Anthrax LT inh -9% and Prx2 Sm inh >57.
Screening Cc1ccc(C(=O)NC=C(Cl)Cl)cc1 returned Anthrax LT inh -12% and Prx2 Sm inh >57.
For COc1ccc(S(=O)(=O)Nc2ccc(Cl)cn2)c(C)c1C the results were Anthrax LT inh 9% and Prx2 Sm inh >57.
`CCOC(=O)C1CCN(c2nc(C)nc3c2oc2ccccc23)CC1` gave Anthrax LT inh 14% and Prx2 Sm inh >57.
Cc1ccc(C)c(N2CCN(C(=O)c3ccc(NS(=O)(=O)c4c(C)noc4C)cc3)CC2)c1 was read as Anthrax LT inh inconclusive and Prx2 Sm inh >57.
`O=C1Nc2ccccc2C12OCCCCO2` gave Anthrax LT inh -13% and Prx2 Sm inh >57.
`Cc1ccc2c(c1)nnn2C1CCN(CC(=O)N2c3ccccc3CC2C)CC1` (configuration not stated) gave Anthrax LT inh -2% and Prx2 Sm inh >57.
CCCNS(=O)(=O)c1ccc(CCC(=O)NCc2cccnc2)cc1 was read as Anthrax LT inh -9% and Prx2 Sm inh >57.
Screening CCOC(=O)N1CCN(C(=O)C(CC)n2nc(C)c3sc4ccccc4c3c2=O)CC1 (configuration not stated) returned Anthrax LT inh -11% and Prx2 Sm inh >57.
O=C(O)CCc1ccc(-c2ccc(Br)cc2)n1CC(=O)O was read as Anthrax LT inh -28% and Prx2 Sm inh >57.
`COC(=O)c1cc(-c2c[nH]c3ccccc23)n[nH]1` gave Prx2 Sm inh >57.
`CC(=O)O[C@@H]1[C@H]([N+]2(C)CCCCC2)C[C@@H]2[C@@H]3CC[C@@H]4C[C@@H](OC(C)=O)[C@H]([N+]5(C)CCCCC5)C[C@@]4(C)[C@H]3CC[C@]21C` gave Anthrax LT inh 20% and Prx2 Sm inh >57.
CC1CCN(S(=O)(=O)c2ccc3[nH]cc(C(=O)NCCN4CCOCC4)c(=O)c3c2)CC1 was read as Anthrax LT inh 20% and Prx2 Sm inh >57.
For CCn1cnc2c1c(=O)n(Cc1csc(-c3ccccc3)n1)c(=O)n2Cc1ccccc1 the results were Anthrax LT inh -3% and Prx2 Sm inh >57.
Screening CCOC(=O)CCNC(=O)CNC(=O)OCc1ccccc1 returned Anthrax LT inh 16% and Prx2 Sm inh >57.
For CC(C)(C)C(=O)NC1(C(F)(F)F)C(=O)Nc2c1c(=O)[nH]c(=O)n2Cc1ccco1 (configuration not stated) the results were Anthrax LT inh -4% and Prx2 Sm inh >57.
For CC1(C)Cc2cccc(OCC(O)CNCc3ccccn3)c2O1 (configuration not stated) the results were Anthrax LT inh -14% and Prx2 Sm inh >57.
Screening COc1cc(C2Nc3ccccc3C(=O)N2c2ccccc2OC)ccc1O (configuration not stated) returned Anthrax LT inh 2% and Prx2 Sm inh >57.
`COc1cc(Cn2c(N)c(C#N)c3nc4ccccc4nc32)cc(OC)c1` gave Anthrax LT inh inconclusive and Prx2 Sm inh >57.
`Cc1cc(C)n(-c2nc3sc4c(c3c3nnc(SCC(N)=O)n23)CC(C)(C)OC4)n1` gave Anthrax LT inh 0% and Prx2 Sm inh >57.
`COc1ccc(CCN2C(=O)CCC2(C)C(=O)NCc2cccnc2)cc1OC` (configuration not stated) gave Anthrax LT inh -2% and Prx2 Sm inh >57.
`CC(C)(C)n1nnnc1C(c1cccnc1)N1CCN(C(=O)c2ccco2)CC1` (configuration not stated) gave Anthrax LT inh 42% and Prx2 Sm inh >57.
`COC(=O)/C=C(\C)NC(=O)c1ccccc1Cl` gave Anthrax LT inh 1%.
CCOc1ccc2nc(NC(=O)C3CCCN(S(=O)(=O)c4c(C)noc4C)C3)sc2c1 (configuration not stated) was read as Anthrax LT inh inconclusive and Prx2 Sm inh >57.
`O=C(Cn1nnc(-c2ccccc2F)n1)Nc1cccc2ncccc12` gave Anthrax LT inh -4% and Prx2 Sm inh >57.
For CCn1c(N)nc2c1c(=O)n(C)c(=O)n2C the results were Anthrax LT inh -1% and Prx2 Sm inh >57.
For CC1(C)CC(=O)C=C(NCCN2CCN(C(=O)Nc3ccc(Cl)cc3)CC2)C1 the results were Anthrax LT inh -8% and Prx2 Sm inh >57.
`CCOc1ccc(S(=O)(=O)N2Cc3ccccc3CC2C(=O)NCCCn2ccnc2)cc1` (configuration not stated) gave Anthrax LT inh -2% and Prx2 Sm inh >57.
CCCCOCCOCCSC#N was read as Anthrax LT inh -3%.
`COc1ccc2c(c1)c(CC(=O)O)c(C)n2Cc1ccc(Cl)cc1` gave Anthrax LT inh -3% and Prx2 Sm inh >57.
Screening Clc1ccc(N2C[C@H]3CC[C@@H](C2)N3)nn1 returned Anthrax LT inh -4% and Prx2 Sm inh >57.
`COc1ccc(OC)c(C(=O)CSc2nc3cccnc3n2C)c1` gave Anthrax LT inh 2% and Prx2 Sm inh >57.
Nc1nc(-c2cccnc2)nn1C(=O)CCc1ccccc1 was read as Anthrax LT inh 3% and Prx2 Sm inh >57.
Screening COc1ccccc1NC(=O)C1=C(C)Nc2nnnn2C1c1cccc(Br)c1 (configuration not stated) returned Anthrax LT inh 18% and Prx2 Sm inh >57.
For CCOC(=O)C1C2c3ccccc3O[C@@]1(C)N=C1SCC(=O)N12 (some centres not stated) the results were Anthrax LT inh 2% and Prx2 Sm inh >57.
Screening CCCOC(=O)c1ccc(-c2c(C)noc2-c2ccc(OC)cc2O)o1 returned Anthrax LT inh inconclusive and Prx2 Sm inh >57.
Cc1ccc(NC(=O)CN2C(=O)C(C)Oc3ccccc32)nc1 (configuration not stated) was read as Anthrax LT inh -13%.
N#Cc1cn(-c2ccccc2)nc1-c1cc2ccccc2oc1=O was read as Anthrax LT inh -6% and Prx2 Sm inh >57.
For CC1CCC(NC(=O)CN2CCC(n3nnc4cc(F)ccc43)CC2)CC1 (configuration not stated) the results were Anthrax LT inh 8% and Prx2 Sm inh >57.
For Cc1cc(C)n2nc(S(=O)(=O)N(CC(C)C)CC(C)C)nc2n1 the results were Anthrax LT inh -5% and Prx2 Sm inh >57.
For CCOC(=O)C1CCN(c2c(NCc3ccc(C(=O)O)cc3)c(=O)c2=O)CC1 the results were Anthrax LT inh -5% and Prx2 Sm inh >57.
Screening O=c1c2ccccc2nc(-c2ccco2)n1-c1nccs1 returned Anthrax LT inh 2% and Prx2 Sm inh >57.
Screening CC1(C)Cc2nc3oc4c(NCc5ccccc5)ncnc4c3cc2CO1 returned Anthrax LT inh 3% and Prx2 Sm inh >57.
For Brc1ccccc1C1=Nn2c(nnc2-c2ccccc2)SC1 the results were Anthrax LT inh 0% and Prx2 Sm inh >57.

Not all compounds are listed; rates above refer to the full screens.
